FPR binder – binds the human formylpeptide receptor FPR; FPR-expressing cells, fluorescent ligand binding, flow cytometry; inhibition, %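 (tested at 6.7 µM)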; 0.74% of 24,000 active; AID 440;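 also: 0% = buffer wells and 100% = receptor blocker peptide wells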
Target sequence (P21462 whole entry, looked up): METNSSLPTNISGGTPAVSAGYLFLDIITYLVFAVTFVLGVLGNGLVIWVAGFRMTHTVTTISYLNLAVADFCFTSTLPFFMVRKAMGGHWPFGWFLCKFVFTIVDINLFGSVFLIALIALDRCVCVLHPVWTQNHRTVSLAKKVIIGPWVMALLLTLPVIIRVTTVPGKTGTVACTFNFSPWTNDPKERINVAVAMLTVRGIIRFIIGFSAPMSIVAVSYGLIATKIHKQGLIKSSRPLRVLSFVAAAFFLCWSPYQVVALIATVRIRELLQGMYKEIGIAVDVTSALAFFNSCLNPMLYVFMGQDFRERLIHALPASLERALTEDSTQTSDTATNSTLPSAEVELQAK
FPRL1 binder – human FPRL1 ligand, with FPR counter-screen. inhibition, %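 (tested at 6.7 µM)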. FPRL1-expressing cells, fluorescent ligand binding inhibition, flow cytometry. AID 441. 0.3% of 24,000 active;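 also: 0% = buffer alone and 100% = receptor blocker peptide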
Target sequence (P25090 whole entry, looked up): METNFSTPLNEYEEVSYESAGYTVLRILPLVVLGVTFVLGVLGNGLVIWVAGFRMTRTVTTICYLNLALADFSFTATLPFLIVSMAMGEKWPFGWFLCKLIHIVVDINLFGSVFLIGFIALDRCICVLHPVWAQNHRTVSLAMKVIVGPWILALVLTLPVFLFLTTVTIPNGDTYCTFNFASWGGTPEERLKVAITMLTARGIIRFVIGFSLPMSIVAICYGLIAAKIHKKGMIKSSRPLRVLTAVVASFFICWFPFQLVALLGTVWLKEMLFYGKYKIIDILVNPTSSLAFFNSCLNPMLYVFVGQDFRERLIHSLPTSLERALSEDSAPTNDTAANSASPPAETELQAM
VCAM-1 up imaging – boosters of cytokine-driven VCAM-1 levels – imaging, high-content imaging, pooled HUVEC, TNFa stimulus (AID 457). 0.2% of 10,000 active. Pooled HUVEC, TNFa-induced VCAM-1 immunofluorescence imaging; hits of this screen are not shown here. calls only;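 active = a top-ranked rise in VCAM-1 staining upheld on image or statistical review; inactive = the rest, including candidates rejected on review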;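 also: compounds tested at 5 µM in the well; cells exposed to compound for 24 hours before fixing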
VCAM-1 imaging – suppression of endothelial VCAM-1 upregulation – imaging, high-content imaging, pooled HUVEC, TNFa stimulus (AID 456); 0.2% of 10,000 active; inhibition, % at 5 µM; hits with a dose series show IC50 in µM; HUVEC TNFa-induced VCAM-1 surface expression, immunofluorescence imaging; numbers were filed only for top-ranked candidate wells;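 active = top tenth filtered wells with inhibition above zero that passed visual or statistical confirmation; inactive = the rest, including hits rejected on review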;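 also: 0% = stimulated vehicle wells and 100% = unstimulated cells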
VCAM-1 down – inhibitors of TNFa-induced VCAM-1 surface display, cell-based, plate reader, pooled HUVEC, TNFa stimulus (AID 454) | HUVEC TNFa-induced VCAM-1 surface immunofluorescence, plate reader; numbers were filed only for top-ranked candidate wells | inhibition, % at 5 µM | 0.2% of 10,000 active;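 active = compound among top-ranked inhibitors of TNF-induced VCAM-1 adhesion protein staining, with the hit upheld by image or statistical review; inactive = the rest, including hits rejected on review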;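 also: 0% = TNFa with vehicle and 100% = cells without TNFa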
An asterisk follows results filed as active; i = inactive; x = not tested or not shown.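 The calls were made as follows, unless noted: active = mean above 30%; inconclusive = self-fluorescent; inactive = the rest.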 Only part of the results is shown. The share of hits here may be higher or lower than overall.

molecule,FPR binder,FPRL1 binder,VCAM-1 up imaging,VCAM-1 imaging,VCAM-1 down
CC(=O)Nc1ccc(S(=O)(=O)N2CCN(c3cc(C)nc4ccccc34)CC2)cc1,4,-6,i,i,i
COc1cc(-c2nc(Cc3c(F)cccc3Cl)no2)cc(OC)c1OC,5,-8,x,x,x
C=C(C)Cn1c(N2CCN(CC)CC2)nc2c1c(=O)[nH]c(=O)n2C,-3,-1,i,i,i
CC(=O)N1CCc2cc(Br)cc(S(=O)(=O)N3CCN(C(=O)c4ccco4)CC3)c21,-2,4,x,x,x
CCOC(=O)C(CCc1nnc(N)s1)C(=O)OCC,6,3,i,i,i
Cc1cccc(S(=O)(=O)Nc2cccc(-c3cn4ccsc4n3)c2)c1,1,0,x,x,x
N#CCC(=O)Nc1ncn(Cc2ccccc2Cl)n1,0,4,i,i,i
CCCC(=O)Nc1ccc(NC(=O)c2cccs2)cn1,1,6,i,i,i
CCS(=O)(=O)N1CCC(C(=O)NCC2CCCO2)CC1 (stereo unspecified),-3,0,x,x,x
CCN1CCN(Cc2ccccc2NC(=O)Nc2ccc(C)cc2)CC1,24,17,i,i,i
COc1ccc(CCNS(=O)(=O)c2ccc3c(c2)CCN3C(=O)CCC(=O)O)cc1OC,3,-1,i,i,i
OC(COCc1ccccc1)CN1CCN(c2ccccc2F)CC1 (stereo unspecified),-7,12,x,x,x
CC(C)(C)c1ccc2c(c1)N(CC(=O)O)C(=O)CO2,-2,6,x,x,x
Cc1ccc2c(c1)N(CCC(=O)NC1CC1)C(=O)C(C)O2 (stereo unspecified),0,0,x,x,x
CCC1Oc2ccc(C)cc2N(CC(=O)N2CCN(c3ccc(F)cc3)CC2)C1=O (stereo unspecified),2,1,x,x,x
CN1CCN(c2nc(C#N)cc(-c3ccccc3)n2)CC1,-16,9,x,x,x
O=S(=O)(c1cccs1)N1CCN(Cc2nc3ccccc3s2)CC1,-4,0,i,i,i
COc1ccc(CN2CC(C(=O)NCCN3CCOCC3)CC2=O)cc1 (stereo unspecified),-7,-1,x,x,x
CCC(C)NC(=O)c1ccccc1NC(=O)CN1C(=O)c2ccccc2S1(=O)=O (stereo unspecified),0,1,x,x,x
O=C(CN1CCN(S(=O)(=O)c2ccc(F)cc2)CC1)Nc1cc(C(F)(F)F)ccc1Cl,-6,-4,x,x,x

Single values from the list:
In FPR binder, CC(C)(C)c1ccc2c(c1)N(CC(=O)O)C(=O)CO2 shows -2
In FPR binder, C=C(C)Cn1c(N2CCN(CC)CC2)nc2c1c(=O)[nH]c(=O)n2C shows -3
In FPR binder, CCC1Oc2ccc(C)cc2N(CC(=O)N2CCN(c3ccc(F)cc3)CC2)C1=O (stereo unspecified) shows 2
In FPRL1 binder, O=C(CN1CCN(S(=O)(=O)c2ccc(F)cc2)CC1)Nc1cc(C(F)(F)F)ccc1Cl shows -4
In FPRL1 binder, COc1ccc(CN2CC(C(=O)NCCN3CCOCC3)CC2=O)cc1 (stereo unspecified) shows -1

Other records:
molecule,FPR binder,FPRL1 binder,VCAM-1 up imaging,VCAM-1 imaging,VCAM-1 down
Cc1nc(N2CCN(c3ncccn3)CC2)c2oc3ccccc3c2n1,2,-3,i,i,i
O=C(OCC(=O)N1CCCC1)c1cncc(Br)c1,6,3,i,i,i
Cc1cc(C)c(C#N)c(SCS(=O)Cc2ccc(Cl)cc2)n1 (stereo unspecified),2,-4,x,x,x
CCOC(=O)c1c(C)c(C(=O)Nc2ccc3c(c2)OCCO3)c(C)n1CC,3,-1,x,x,x
CC1CCCC(C)N1CCNC(=O)C1CCN(S(=O)(=O)N2CCCCC2)CC1 (stereo unspecified),-8,0,i,i,i
O=C(NCCCN1CCOCC1)C1CC(=O)N(C2CCCCC2)C1 (stereo unspecified),1,-1,x,x,x
O=C(c1ccccc1)c1ccc2nc(N3CCCCC3)c3nncn3c2c1,3,-2,x,x,x
O=C(Nc1cccnc1)c1coc(=O)c2ccccc12,10,2,x,x,x
CC1=C(C(=O)NCCCOC(C)C)C2(CCC(C)CC2)OC1=O (stereo unspecified),-1,-5,x,x,x
Cc1cc(C)c2nc(N3CCC(C(=O)N4CCCC4)CC3)sc2c1,1,-7,x,x,x
CCC(=O)N1CCc2cc(S(=O)(=O)NC(Cc3ccccc3)C(=O)NC3CCCC3)ccc21 (stereo unspecified),6,-2,x,x,x
Cn1cccc1Cc1nnc(SCC(=O)N2CCc3ccccc32)n1-c1ccc(F)cc1,-4,-1,x,x,x
CC(NC(=O)c1cccs1)C(c1cccs1)N1CCN(c2ccccc2)CC1 (stereo unspecified),-11,-16,x,x,x
O=C(NCCCN1CCOCC1)c1cc(-c2ccc(Br)cc2)on1,-3,4,x,x,x
CCOC(=O)N1CCN(S(=O)(=O)c2ccc3c(c2)SCC(=O)N3)CC1,4,-1,x,x,x
CC(C)C1N(S(=O)(=O)c2ccccc2)CCN1S(=O)(=O)c1ccccc1,1,-4,x,x,x
Cc1ccc(Nc2nc(N)nc(CN3CCN(Cc4ccc5c(c4)OCO5)CC3)n2)cc1,-4,2,i,i,i
Cc1n[nH]c(C)c1S(=O)(=O)N1CCOCC1,4,3,x,x,x
FC(F)Oc1ccc(-c2csc(Cc3nnc4n3CCCCC4)n2)cc1,0,8,i,i,i
CCOc1nc(SCCOc2ccccc2)nc(N(C)C)n1,1,3,i,i,i

2 compounds from above, showing only FPR binder, VCAM-1 up imaging and VCAM-1 down:
structure	FPR binder	VCAM-1 up imaging	VCAM-1 down
Cc1cc(C)c(C#N)c(SCS(=O)Cc2ccc(Cl)cc2)n1 (stereo unspecified)	2	x	x
Cc1ccc(Nc2nc(N)nc(CN3CCN(Cc4ccc5c(c4)OCO5)CC3)n2)cc1	-4	i	i

More entries:
molecule,FPR binder,FPRL1 binder,VCAM-1 up imaging,VCAM-1 imaging,VCAM-1 down
COCCN1CCN(c2c(C)c(C)nc3cc(-c4cccc(OC)c4)nn23)CC1,-1,-7,i,i,i
CCOC(=O)C1=C(C)N=c2s/c(=C\c3cccn3C)c(=O)n2C1c1cccc(OC)c1OC (stereo unspecified),-18,-23,i,i,i
CC1CC(=O)c2cnc(NCC3CCCO3)nc2C1 (stereo unspecified),3,6,i,i,i
Cc1ccc(CCNC(=O)C2CCN(C(=O)c3sccc3-n3cccc3)CC2)cc1,2,2,x,x,x
CSc1ccccc1C(=O)NC1CC2CCC1C2 (stereo unspecified),13,4,i,i,i
COc1ccc(S(=O)(=O)Nc2ccc(F)c(F)c2)cc1Cl,5,-4,i,i,i
COc1ccc(-c2nc3cnccn3c2Nc2ccc3c(c2)OCO3)cc1,5,12,x,x,x
Cc1cc(C)c2c(n1)nn1c(N3CCN(c4cccc(Cl)c4)CC3)cc(C)nc21,-6,1,i,i,i
CC1=C(C(=O)Nc2ccccn2)C(c2cccnc2)n2nnnc2N1 (stereo unspecified),2,4,x,x,x
O=C(NCc1ccco1)c1cccc2c1C(=O)N(C1CCCCC1)C2,-2,2,x,x,x
COc1ccc(CN2C(=O)c3cccnc3C2Nc2cc(Cl)c(OC)cc2OC)cc1 (stereo unspecified),2,4,x,x,x
Cc1ccc(N(C(=O)c2ccc(S(=O)(=O)N3CCOCC3)cc2)C2C=CS(=O)(=O)C2)cc1 (stereo unspecified),-1,2,x,x,x
COC(=O)c1ccc2c(=O)n3c(nc2c1)SCC(c1ccccc1)=N3,8,0,x,x,x
Cn1nc(-c2ccccc2F)c2cc(C(=O)N3CCN(C(=O)c4ccco4)CC3)sc21,1,-10,x,x,x
N#CCCNCC1(c2ccccc2)CCCC1,-1,-4,i,i,i
COc1cc(S(=O)(=O)N2CCOCC2)ccc1NC(=O)COC(=O)C12CC3CC(CC(C3)C1)C2,5,-5,i,i,i
Cc1nc2sc(C(c3ccc(F)cc3)N3CCOCC3)c(O)n2n1 (stereo unspecified),-1,-2,x,x,x
CCCCOC(=O)c1ccc(OC(=O)c2cccnc2)cc1,-3,-1,x,x,x
COc1cc2c(cc1OC)CN(C(=O)COc1ccc(C)c(C)c1)CC2,6,1,i,i,i
CCCCNC(=O)CN(C1CCCCC1)S(C)(=O)=O,-3,2,i,i,i
Cc1cc(NC(=O)c2cc(C3CC3)on2)n(-c2ccccc2)n1,-8,-2,x,x,x
COc1ccc(C2/C(=C(/O)c3ccc(C)cc3)C(=O)C(=O)N2C)cc1 (stereo unspecified),-30,7,x,x,x
COC(=O)c1cccc(NC(=O)C2COc3ccccc3O2)c1C (stereo unspecified),-9,2,i,i,i
O=C(NCc1nnc(SCC(=O)N2CCCC2)o1)c1ccccc1F,5,3,x,x,x
CCCc1cc(C(=O)NCc2ccc(OC)cc2)no1,0,3,x,x,x
O=C(Nc1ccc(N2C(=O)C3C4C=CC(C4)C3C2=O)cc1)Nc1nncs1 (stereo unspecified),9,1,i,i,i
O=C(NCCc1ccccc1)C1CCCN(S(=O)(=O)c2cccs2)C1 (stereo unspecified),1,4,i,i,i
O=C(CNS(=O)(=O)c1ccc(Br)s1)Nc1ccc2c(c1)OCCO2,0,1,x,x,x
COc1ccc(N2CCN(C(c3cccs3)c3nnnn3C3CCCC3)CC2)cc1 (stereo unspecified),-6,4,i,i,i
CCOc1ccc(-c2nnc3ccc(SCC(=O)N4CCN(c5ccccc5)CC4)nn23)cc1,1,-5,x,x,x
C=CCNC(=O)Cn1nc(-c2ccccc2)ccc1=O,-4,4,x,x,x
CCOC(=O)N1CCC(NC(=O)C2CCC(CNS(=O)(=O)c3ccc(OC)cc3)CC2)CC1 (stereo unspecified),-4,-2,x,x,x
O=C(CN1C(=O)C2C3C=CC(C3)C2C1=O)NCCC1=CCCCC1 (stereo unspecified),2,-1,x,x,x
Cc1nn(C(=O)c2cc3sccc3[nH]2)c(C)c1C,1,-5,i,i,i
Nc1cc(-c2ccc(Br)cc2)nn1S(=O)(=O)c1ccccc1,-2,-3,i,i,i
Cc1c(C(=O)OCC(C)C)[nH]c2c1C(=O)CC(c1ccco1)C2 (stereo unspecified),12,7,i,i,i
CCCN(CCO)Cc1cccc(Br)c1,-8,-6,i,i,i
Cn1c(SCc2nc(-c3ccc(Cl)cc3)no2)nnc1-c1ccco1,-1,-7,x,x,x
CCOc1ccc(OCC)c(NC(=O)Cn2cccc2)c1,-6,0,x,x,x
CCc1cc2c(=O)c(-c3nc4ccccc4n3C)c(C(C)C)oc2c(CN2CCN(C)CC2)c1O,-2,0,x,x,x
COc1ccc(N2C(=O)C3C4C=CC(C4)C3C2=O)nn1 (stereo unspecified),1,-3,i,i,i
CCCc1cc(C(=O)Nc2sc(C(C)=O)c(C)c2C(=O)OCC)no1,-3,0,x,x,x
CCN1CCCC1CNC(=O)Cn1cnc2ccc(S(=O)(=O)N3CCC(C)CC3)cc2c1=O (stereo unspecified),-5,-5,x,x,x
CCCCOC(=O)Nc1cc(C(=O)OC)ccc1C(=O)OC,2,-2,x,x,x
Cc1cccc(NCc2ccccc2O)c1C,4,1,x,x,x
OC[C@H]1O[C@@H](n2cnc3c(NC4CCCC4)ncnc32)[C@H](O)[C@@H]1O,-7,2,i,i,i
Cc1cc(NCCN(C)C)n2nc(-c3cccs3)cc2n1,-4,-6,i,i,i
CCc1ccccc1N1CSC2=C(C#N)C(c3ccccc3F)CC(=O)N2C1 (stereo unspecified),2,0,x,x,x
CN(C)c1ccc(/C(=N\O)c2ccccc2)cc1,1,6,i,i,i
COc1ccccc1-c1cc(C(=O)Nc2cc(C)n(Cc3ccc(Cl)cc3)n2)no1,4,1,x,x,x
O=C(NCc1ccco1)C1CCN(S(=O)(=O)N2CCC3(CC2)OCCO3)CC1,-3,2,i,i,i
Cc1cc(C(N)=O)c2cc(Br)ccc2n1,-6,-4,i,i,i
Cc1n[nH]c(C)c1S(=O)(=O)N1CCN(c2ccccn2)CC1,15,-2,i,i,i
O=C(c1ccco1)N1CCN(c2ccc(Cl)cc2)CC1,-6,9,i,i,i

Screens from PubChem BioAssay.
